VACV E9 pol inh = inhibitors of vaccinia virus processive DNA synthesis (E9 polymerase); in vitro processive DNA synthesis, absorbance read-out; stronger effect = lower value; some inactives read as strong as hits; AID 493162; normalized absorbance, % (concentration not given with the values); 0.94% of 46,000 active;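 active = replicate mean up to 90% and picked by the depositor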;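 also: 100% = median of the test wells of a plate; 100 nL library stock went into each well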
The depositor's hits bear a star. Some of the compounds tested; count on the stated rates, not on these rows.

SMILES	VACV E9 pol inh
Cc1cccc(NC(=O)NC(C)c2c(-n3cccc3)sc(C)c2C)c1C (stereo unspecified)	109
O=C(O)C1CCCN(S(=O)(=O)N2CCCCC2)C1 (stereo unspecified)	100
CNC(=O)c1cn(C)c2ccccc12	107
COc1ccc(-n2nc(C(=O)N(C)c3ccccc3)c3c4ccccc4n(C)c3c2=O)cc1	87
Cc1cc(NC(=O)CCCC(=O)O)n(C)n1	98
CC(C)(C)C1C/C(=C/c2ccco2)C(=O)/C(=C/c2ccco2)C1 (stereo unspecified)	86
Cn1c(C(=O)O)c(CNCCC2=CCCCC2)c2ccccc21	102
O=C(COC(=O)c1ccc(Cl)cc1)NCC1CCCCC1	103
CC(C)(CO)NC(=S)NCC1CCCO1 (stereo unspecified)	106
COc1ccc(C(=O)OCC[N+]2(C)CCOCC2)cc1	100
CCOC(=O)C1CCCN(C(=O)c2cc3cc4ccc(OC)cc4nc3o2)C1 (stereo unspecified)	105
O=C(Cn1ccc2ccccc21)Nc1cccc(C(F)(F)F)c1	100
S=c1[nH]nc(Cn2cnc3ccccc32)n1-c1ccccc1	100
CCN1CCN(c2ccc(Nc3ccnc4cc5ccccc5cc34)cc2)CC1	14*
O=C(CC1Sc2ccccc2NC1=O)NCc1ccccc1 (stereo unspecified)	104
Cc1c2cnn(-c3ccccc3)c(=O)c2c(C)n1CC(=O)NC(C)C	99
O=S(=O)(c1ccccc1)N(c1ccccc1)c1ccccc1	101
Brc1c(-c2ccccc2)nc2ccccn12	81
COC(CNC(=O)c1cc(=O)[nH]c2ccc(Br)cc12)OC	110
Cc1cc2cc(CNC(=S)NC(C)(C)C)ccc2n1C	97
CCn1cc(SCC(=O)N2CCOCC2)c2ccccc21	101
O=C(COC(=O)c1cccc(Cl)c1)NC12CC3CC(CC(C3)C1)C2	104
COC(=O)CSc1cc(C(C)(C)C)c(O)c(C(C)(C)C)c1	102
COc1ccc(S(=O)(=O)NCc2ccccc2)cc1	100
COC(=O)c1ccc(NC(=O)C(C)C)cc1	100
O=C(O)c1cc(NC(=O)c2cccs2)cc(C(=O)O)c1	100
COC(=O)c1ccc(-n2nnnc2SCC(=O)NC(C)(C)C)cc1	100
CCOC(=O)c1[nH]c2ccccc2c1NC(=O)c1ccccc1	86
CCC1CCCCN1C(=O)COc1ncnc2ccccc12 (stereo unspecified)	102
Cc1cc(=O)oc2cc(OCC(=O)N3c4ccccc4CC3C)ccc12 (stereo unspecified)	100
COc1cccc(C2=NC(C)(C)NC(c3ccccc3O)C2)c1 (stereo unspecified)	103
CC(C)C(OC(=O)c1ccccc1)c1nccc2ccccc12 (stereo unspecified)	106
O=C(CSc1ncnc2sc3c(c12)CCCC3)N1CCCCC1	100
Cc1cc(NC(=O)c2cc(-c3ccc4c(c3)OCO4)on2)n(-c2ccccc2)n1	102
CC(=O)Nc1ccc(C(=O)OCC(=O)N2CCc3ccccc32)cc1	94
CC(C)(C)Sc1cccc2ccccc12	101
O=C(CSc1nc2ccccc2o1)Nc1ccccn1	100
CNC1CCS(=O)(=O)C1 (stereo unspecified)	100
CC(C)(C)c1ccc(/C=C/C(=O)NCCCn2ccnc2)cc1	102
Cc1oc2ccc(OCc3cccc(F)c3)cc2c1C(=O)O	83
CCC(Sc1nc2ccncc2[nH]1)C(=O)NCCc1ccccc1 (stereo unspecified)	100
O=C(Nc1c(-c2ccccc2)nc2ncccn12)c1ccc(Cl)cc1	100
O=c1oc2cc(O)ccc2cc1-c1nc2ccccc2s1	97
Cc1nc2ccccc2c(=O)n1-c1cccc(C(F)(F)F)c1	101
Cc1nc2c(o1)N(c1ccccc1)C(N)=C(C#N)C2c1ccc(OC(C)C)cc1 (stereo unspecified)	93
COC(=O)C1=C(C)OC(N)=C(C#N)C1c1cc(C)cc(Cn2ccc(C(F)(F)F)n2)c1C (stereo unspecified)	108
CCn1c(=NC(=O)c2ccc(S(=O)(=O)N(C)C)cc2)sc2cc(Cl)ccc21	99
Cc1ccc(C)c(NC(=S)NC2CC(C)CC(C)(C)C2)c1 (stereo unspecified)	99
CN(Cc1ccccc1)C(=O)Cn1nc(-c2ccc(Cl)cc2)ccc1=O	106
CCN(CC)C(=O)c1nn(-c2ccc(OC)cc2)c(=O)c2c1c1ccccc1n2C	99
Cc1cc(C)nc(SCc2csc(-c3ccccc3)n2)n1	95
CCC(CO)NC(=O)c1cn(-c2ccccc2)nc1-c1cccs1 (stereo unspecified)	105
CC(=O)NCCc1c[nH]c2ccc(O)cc12	99
COCn1nc(-c2ccccc2Cl)oc1=S	100
O=C1/C(=C/c2ccc(N3CCOCC3)cc2)CCC1C1CCCC1 (stereo unspecified)	95
CSc1nnc2nc3c(nn12)c1ccccc1n3C	97
Cc1ccc(/C=C/C(=O)N(Cc2ccccc2)c2ccccn2)cc1	93
CN(C(=O)c1cn(C2CCCC2)c(=O)c2c1c1ccccc1n2C)c1cccc(C(F)(F)F)c1	96
COC(=O)C(C)NC(=O)c1ccc(C)cc1 (stereo unspecified)	102
Cc1cc(Cl)ccc1Oc1cc(C(F)(F)F)cnc1C#N	102

Next records follow.
SMILES	VACV E9 pol inh
CN(Cc1cccs1)C(=S)S	101
CC1=C(/C=C/C(C)=C/C=C/C(C)=C/C(=O)Nc2ccc(O)cc2)C(C)(C)CCC1	97
Cc1nc(C#N)c(N(C)C)o1	101
Cc1ccc(S(=O)(=O)N2CCN(c3nc(NC4CCCC4)c4ccccc4n3)CC2)cc1	100
CCS(=O)(=O)N1CCN=C1SCc1cccc(F)c1	92
COC(=O)c1sc2ccccc2c1NC(=O)C1CCCCC1	100
CCSc1nnc(NC(=O)CSc2ncccn2)s1	100
CCc1ccc(CN2C(=O)c3ccccc3C2C(=O)NCC2CCCO2)cc1 (stereo unspecified)	100
Cc1cn(CCOc2ccc(Cl)cc2)c(=O)[nH]c1=O	102
CC(=O)N1N=C2c3ccccc3CCC2C1c1cccs1 (stereo unspecified)	77
O=C(Cn1ncc2ccc(Cl)cc21)N1CCCCC1	100
COC(=O)c1cc(C(=O)OC)c(C(=O)OC)cc1C(=O)OC	101
Cc1noc(C)c1S(=O)(=O)N1c2ccccc2CC1C (stereo unspecified)	106
CC(=O)OCC(=O)[C@@]1(O)[C@H](OC(C)=O)CC2C3CCC4=CC(=O)C=C[C@]4(C)[C@@]3(F)[C@@H](O)C[C@@]21C (stereo partly specified)	100
COC(=O)CN1C(c2ccccc2)=Nc2ccc(C)cc2C1c1ccccc1 (stereo unspecified)	100
COc1ccc(C2CC(c3ccc4ccccc4c3)=NN2C)cc1 (stereo unspecified)	101
CC1=C(C(=O)OC(C)C)C(c2cn(-c3ccccc3)nc2-c2ccc(OC(C)C)cc2)NC(=O)N1 (stereo unspecified)	100
COC(=O)CCN1C(=O)/C(=C/c2ccccc2)SC1=S	87
Cc1ccc(-c2noc(CCC(=O)NCCCN3CCN(c4ccc(F)cc4)CC3)n2)cc1	104
C=C(C)Cn1c(CCNC(=O)c2cc(OC)c(OC)c(OC)c2)nc2ccccc21	104
COC(=O)C1=C(C)N(c2ccc(C(C)C)cc2)C(=O)C1	101
CC(/C=N/N1C(=O)c2ccccc2C1=O)c1ccccc1 (stereo unspecified)	103
Cc1ccc(CN2CCN(CC(=O)N3CCC4(CC3)OCCO4)C2=O)cc1	87
O=C(Cn1nc(C(F)(F)F)c2c1CCC2)N1CCCC1	96
CC[N+](C)(CC)CCC[n+]1c(-c2ccccc2)c2cc(N)ccc2c2ccc(N)cc21	8.9*
Cc1ccc(CNc2oc(C)nc2C#N)cc1	110
CCCCN1C(=O)CCC(C(=O)O)C1c1ccccc1 (stereo unspecified)	113
O=C(COc1ccccc1F)Nc1cc(C(F)(F)F)ccc1Cl	101
CCN(Cc1cccc(Cl)c1Cl)C(=O)c1cnc(OC)cc1C(F)(F)F	97
CC(NC(=O)CSc1ccccc1C(=O)O)C1CC2CCC1C2 (stereo unspecified)	100
CC(=NCC1CCNCC1)C1=C(O)CC(C)(C)CC1=O	100
COCCN1C(=O)C=CC1=O	102
O=C(O)CN(CC(=O)O)c1ccc(Cl)cc1	93
CC(NC(=O)CSc1ncnc2ccccc12)C1CC2CCC1C2 (stereo unspecified)	99
Cc1cc(C)c(S(=O)(=O)N2CCC(C(N)=O)CC2)c(C)c1	102
COc1ccc(N(C(C)=O)S(=O)(=O)c2ccc(C)cc2)cc1	100
CCC1CCCCN1Cc1c(O)cc(C)c2c1oc(=O)c1ccccc12 (stereo unspecified)	100
O=C1OC(c2ccc(O)cc2)(c2ccc(O)cc2)c2ccccc21	100
CCc1ccc(NC(=O)c2ccc(N3CCCS3(=O)=O)cc2)cc1	93
O=c1cc(N2CCc3ccccc3C2)[nH]c(=O)n1Cc1ccc(F)cc1	97

In a second layout: 26 of the compounds above.
smiles | VACV E9 pol inh
COC(=O)CN1C(c2ccccc2)=Nc2ccc(C)cc2C1c1ccccc1 (stereo unspecified) | 100
COc1ccc(C2CC(c3ccc4ccccc4c3)=NN2C)cc1 (stereo unspecified) | 101
CC1=C(C(=O)OC(C)C)C(c2cn(-c3ccccc3)nc2-c2ccc(OC(C)C)cc2)NC(=O)N1 (stereo unspecified) | 100
COC(=O)CCN1C(=O)/C(=C/c2ccccc2)SC1=S | 87
Cc1ccc(-c2noc(CCC(=O)NCCCN3CCN(c4ccc(F)cc4)CC3)n2)cc1 | 104
C=C(C)Cn1c(CCNC(=O)c2cc(OC)c(OC)c(OC)c2)nc2ccccc21 | 104
COC(=O)C1=C(C)N(c2ccc(C(C)C)cc2)C(=O)C1 | 101
CC(/C=N/N1C(=O)c2ccccc2C1=O)c1ccccc1 (stereo unspecified) | 103
Cc1ccc(CN2CCN(CC(=O)N3CCC4(CC3)OCCO4)C2=O)cc1 | 87
O=C(Cn1nc(C(F)(F)F)c2c1CCC2)N1CCCC1 | 96
CC[N+](C)(CC)CCC[n+]1c(-c2ccccc2)c2cc(N)ccc2c2ccc(N)cc21 | 8.9*
Cc1ccc(CNc2oc(C)nc2C#N)cc1 | 110
CCCCN1C(=O)CCC(C(=O)O)C1c1ccccc1 (stereo unspecified) | 113
O=C(COc1ccccc1F)Nc1cc(C(F)(F)F)ccc1Cl | 101
CCN(Cc1cccc(Cl)c1Cl)C(=O)c1cnc(OC)cc1C(F)(F)F | 97
CC(NC(=O)CSc1ccccc1C(=O)O)C1CC2CCC1C2 (stereo unspecified) | 100
CC(=NCC1CCNCC1)C1=C(O)CC(C)(C)CC1=O | 100
COCCN1C(=O)C=CC1=O | 102
O=C(O)CN(CC(=O)O)c1ccc(Cl)cc1 | 93
CC(NC(=O)CSc1ncnc2ccccc12)C1CC2CCC1C2 (stereo unspecified) | 99
Cc1cc(C)c(S(=O)(=O)N2CCC(C(N)=O)CC2)c(C)c1 | 102
COc1ccc(N(C(C)=O)S(=O)(=O)c2ccc(C)cc2)cc1 | 100
CCC1CCCCN1Cc1c(O)cc(C)c2c1oc(=O)c1ccccc12 (stereo unspecified) | 100
O=C1OC(c2ccc(O)cc2)(c2ccc(O)cc2)c2ccccc21 | 100
CCc1ccc(NC(=O)c2ccc(N3CCCS3(=O)=O)cc2)cc1 | 93
O=c1cc(N2CCc3ccccc3C2)[nH]c(=O)n1Cc1ccc(F)cc1 | 97

(continued)
SMILES	VACV E9 pol inh
Cn1c2ccccc2c2cc(C3Nc4ccccc4C(=O)N3O)ccc21 (stereo unspecified)	97
O=C(O)C1CC(c2ccccc2)=C(c2ccccc2)CC1C(=O)c1ccccc1 (stereo unspecified)	96
Cc1ccc(-c2[nH]c3ccccc3c2SCCN)cc1	85
CN(C)c1ccc(NC(=O)Nc2ccccc2F)cc1	84
O=C(c1cnoc1)c1cc(Cl)cc(Cl)c1O	94
COC(=O)c1ccc(C2N(Cc3ccc(F)cc3)CCCN2Cc2ccc(F)cc2)cc1	104
Cc1nc2cc(NS(=O)(=O)c3ccc(Oc4ccccc4)cc3)ccc2s1	100
COc1ccc(NC(=O)[C@H](CCS(C)(=O)=O)N2Cc3ccccc3C2=O)cc1Cl	104
O=C(c1ccccc1)c1cn(Cc2ccccc2)c2ccccc2c1=O	84
CCN1/C(=C2\C(=O)N=C(C)N2c2ccccc2)C=Cc2ccc(C)cc21	99
CCCOC(=O)C(C)Oc1ccc2c(=O)c(-c3ccccc3Cl)coc2c1 (stereo unspecified)	100
CCOC(=O)c1cc(CC)sc1/N=C/C1C(=O)NC(=S)NC1=O	100
N#CC(c1ccccc1)c1cn2cc(Br)ccc2n1 (stereo unspecified)	109
Cc1ccc2sc(C(=O)O)cc2c1	83
Clc1cc(N2CCOCC2)nc(-c2ccccc2)n1	105
Cc1ccc(Nc2nc(N)nc(CSc3ncccn3)n2)cc1	100
O=C(O)COc1ccccc1C=C1C(=O)c2ccccc2C1=O	100
Cc1ccc(CSc2nc(C)c(Oc3cccc(C(F)(F)F)c3)c(=O)n2C)cc1	98
Cc1ccc(-c2csc(NC(=O)c3cccs3)n2)cc1C	88
CC(C)(C)OC(=O)N1CCN(Cc2ccccc2)CC1	101
CC(C(O)c1ccccc1)N(C)S(=O)(=O)c1ccc(Cl)cc1 (stereo unspecified)	98
Cc1ccc(-c2nc(C(=O)NCCN3CCc4ccccc4C3)c3n2CCCCC3)cc1	103
NOCc1cccc(C(F)(F)F)c1	118
CCc1ccc2c(C)cc(=O)oc2c1	78
O=C(c1ccccc1Br)N1CCN(c2ccccc2)CC1	92
COc1cccc(OC)c1CN(C)C(=O)c1cnc(Oc2ccccc2)cc1C(F)(F)F	93
CSc1nn(C)c2cnn(C)c(=O)c12	97
O=C1CCCc2c1cc(-c1ccccc1)n2-c1cccnc1	100
O=C(Nc1ccc2[nH]c3c(c2c1)CCCC3)c1cccs1	100
C[N+](C)(C)CCCCCC[N+](C)(C)C	100
Cn1c(SCC(=O)NN)nnc1-c1ccccc1	101
CC1(C)CC(=O)C2=C(C1)Nc1[nH]c(=S)[nH]c(=O)c1C2c1cccs1 (stereo unspecified)	100
O=C(NC1CCCCC1)c1cc(-c2ccccn2)nc2ccccc12	98
CC1CCN(S(=O)(=O)c2ccc(NC(=O)/C=C/c3ccccc3)cc2)CC1	100
